Screening results as filed in PubChem.
TRPV1 PAM – enhances activation of the human vanilloid receptor TRPV1. Q8NER1. TRPV1-expressing cells, Fluo-8 calcium influx, capsaicin EC20 potentiation; host cell line not named in the record; control for the full effect not named in the record. potentiation, % at 8.33 µM. 320,000 compounds, 0.02% hits. AID 540277; active means potentiation above 80%; inconclusive means 30% to 80%; inactive means below 30%; also: 0% is about no effect
Target sequence (Q8NER1 whole entry, looked up): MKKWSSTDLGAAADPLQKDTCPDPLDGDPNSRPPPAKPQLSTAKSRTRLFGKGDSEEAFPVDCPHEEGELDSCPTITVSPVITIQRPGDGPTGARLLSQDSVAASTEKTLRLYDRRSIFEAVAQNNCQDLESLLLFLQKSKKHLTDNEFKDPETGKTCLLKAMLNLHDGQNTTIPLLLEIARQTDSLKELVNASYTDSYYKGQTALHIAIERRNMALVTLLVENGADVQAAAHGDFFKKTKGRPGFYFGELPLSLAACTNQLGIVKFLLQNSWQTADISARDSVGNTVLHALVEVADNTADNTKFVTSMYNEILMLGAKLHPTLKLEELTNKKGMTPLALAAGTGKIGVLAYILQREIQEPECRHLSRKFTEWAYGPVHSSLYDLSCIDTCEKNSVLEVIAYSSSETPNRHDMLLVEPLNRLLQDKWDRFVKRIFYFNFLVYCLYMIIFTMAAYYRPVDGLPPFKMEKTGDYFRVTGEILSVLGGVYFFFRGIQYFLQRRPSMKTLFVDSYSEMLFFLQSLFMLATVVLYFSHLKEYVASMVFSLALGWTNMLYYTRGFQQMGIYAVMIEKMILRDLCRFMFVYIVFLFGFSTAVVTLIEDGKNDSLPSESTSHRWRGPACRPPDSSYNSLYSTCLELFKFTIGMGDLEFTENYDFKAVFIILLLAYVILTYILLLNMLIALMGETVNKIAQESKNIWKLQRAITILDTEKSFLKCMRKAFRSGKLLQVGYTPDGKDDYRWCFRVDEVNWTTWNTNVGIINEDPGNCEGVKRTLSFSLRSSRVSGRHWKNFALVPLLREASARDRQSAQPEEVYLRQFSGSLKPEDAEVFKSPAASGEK
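Cells expressing TRPV1 were dye-loaded with Fluo-8 and read kinetically: 10 s baseline, 3 min after compound (agonist portion), then 2 min after EC20 capsaicin (allosteric enhancer portion). Calcium-bound dye fluorescence at 480/520 nm.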
gsp ag – agonists of gsp mutant (McCune-Albright syndrome) | gsp mutant cells, cAMP HTRF, 30 min; control for the full effect not named in the record | Potency, µM (doses to about 76.9 µM), for the others: at the highest dose activation (cAMP increase), usual class: activators | 340,000 compounds, 0.13% hits | AID 624287; active = well fitted activation curve with a large enough effect; inconclusive = small, poorly fitted or top-dose-only effect, or another doubt; inactive = no such curve, though single readings can be large or run the other way; cell line not stated here;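 also: phosphodiesterase inhibitor Ro 20-1724 added with compounds to block cAMP breakdown; potency is read from the fitted curve at half-maximal effect; nearly all actives have a fitted effect of over 60% in size; about a fifth of the inactives were tested at one dose only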
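Cells stably selected in G418 were plated at 2000/well, grown 16-24 hr, then given compounds in DMSO with the PDE inhibitor […] (300 uM solution added) for 30 min at 37C; cAMP was read by HTRF.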
D2 PAM – potentiates the human D2 dopamine receptor allosterically; potentiation, % (no concentration beside the values); P14416; DiscoveRx D2 beta-arrestin cells, luminescence, 90 min; 100% = 57 uM dopamine signal; 360,000 compounds, 0.23% hits; active = potentiation of 50% or more; inconclusive = 30% to 50%; inactive = 30% or less;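 also: compound concentration not given in the record; tested on top of an EC20 dose of dopamine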
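PathHunter beta-arrestin assay in DiscoveRx D2 cells. Compounds were added with an EC20 of dopamine (50 nM final) for 90 min at 37 deg C. Luminescence was read 1 h after detection reagent, with 57 uM dopamine as the EC100 control.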
gsp antag – antagonizes gsp, the McCune-Albright syndrome mutation; gsp-mutant cells, cAMP HTRF, 30 min; control for the full effect not named in the record; Potency, µM (highest dose often 76.9 µM), without a hit: top-dose activity change, negative = inhibition, actives largely listed as inhibitors; 340,000 compounds, 0.4% hits; active = falling curve of any shape with a large fitted effect; inconclusive = falling curve, mostly with a smaller effect; inactive = flat or rising curve; cell line not stated here;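 also: intracellular cAMP measured with PDE inhibitor Ro 20-1724 present during compound exposure; potency is read from the fitted curve at half-maximal effect; % is scaled to controls: 0 for no effect and ±100 for the full control effect; nearly all actives have a fitted effect of over 65% in size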
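Cells in G418 medium, seeded 16-24 h, 37C; buffer exchange to DPBS + 1 mM CaCl2, 0.5 mM MgCl2, 0.05% BSA; cpds in DMSO + […] (300 uM stock), 30 min 37C; HTRF cAMP detection.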
Sfp PPTase inh – inhibitors of Bacillus subtilis Sfp phosphopantetheinyl transferase | Biochemical Sfp PPTase activity, qHTS | 310,000 compounds, 3.5% hits | Q9F4F7 | Potency, µM, without a hit: max response, negative = inhibition, actives largely listed as inhibitors | AID 1490; active = well fitted inhibition curve with a large enough effect; inconclusive = small, poorly fitted or top-dose-only effect, or another doubt; inactive = no such curve, though single readings can be large or run the other way;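 also: the enzyme is Sfp with the accession as filed and its product quenches rhodamine fluorescence; potency is read from the fitted curve at half-maximal effect; 0% = enzyme reaction without inhibitor and -100% = no enzyme wells; top concentration of the series not given in the record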
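Fluorescence-quenching assay with 15 nM Sfp, 5 uM rhodamine-CoA and 12.5 uM BHQ-2-labelled ybbR peptide in pH 7.6 Hepes/MgCl2 buffer. Enzyme was pre-incubated with compound for 15 min at room temperature. Rate was taken from the 30-min fluorescence change (525/598 nm).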
ClpP mod – qHTS Assay for Activators of ClpP; Potency, µM (top dose mostly 57.5 µM), inactives show top-dose activity change, negative = active; AID 651965, 2013; 340,000 compounds, 1.9% hits; ATP-dependent Clp protease proteolytic subunit (Bacillus subtilis (strain 168)), P80244; purified B. subtilis ClpP, FRET peptide cleavage, 20 min; active = well fitted falling curve with a large enough effect; inconclusive = small, poorly fitted or top-dose-only effect; inactive = no such curve, though single readings can be large or run the other way; also: potency is read from the fitted curve at half-maximal effect; the source files actives as falling curves though it sought activators and does not explain the sign; nearly all actives have a fitted effect of over 65% in size; many hits overshoot -100%
Target sequence (P80244 whole entry, looked up): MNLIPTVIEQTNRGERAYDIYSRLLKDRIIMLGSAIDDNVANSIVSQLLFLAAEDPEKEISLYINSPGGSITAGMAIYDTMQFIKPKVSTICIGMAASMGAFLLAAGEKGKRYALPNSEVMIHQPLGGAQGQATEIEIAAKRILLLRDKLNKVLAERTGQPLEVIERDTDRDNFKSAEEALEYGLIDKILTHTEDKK
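Purified B. subtilis ClpP, 10 microg/mL final in Tris/HCl pH8 with KCl, BSA, glycerol and Tween-20, cleaved an Abz/nitrotyrosine-quenched decapeptide. Fluorescence (ex 320, em 430) was read at 0 and 20 min at room temperature. Delta was normalized to 5.8 microM ADEP and DMSO/no-enzyme controls.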
Menin-MLL FL inh – displaces fluorescein MLL peptide from human menin; 290,000 tested, under 10 active; AID 1766; FP activity change, % at 61.4 µM; Fluorescence polarization, fluorescein-MLL peptide displacement from menin; inconclusive = falling polarisation curve, or a change in total fluorescence; inactive = total fluorescence flat and polarisation flat or rising; no compound was filed as active; the % refers to the polarisation; negative = inhibition;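 also: % of control where 0% means no effect; inhibitors lower the polarisation; unlabelled MLL peptide was the positive control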
* = called active by the depositor; u = inconclusive; x = no result given; & = joins results of further samples; [ ] = dose if it differs, or a comment.

structure	TRPV1 PAM	gsp ag	D2 PAM	gsp antag	Sfp PPTase inh	ClpP mod	Menin-MLL FL inh
Cc1ccc2nc(SCC(=O)Nc3cc([N+](=O)[O-])ccc3F)[nH]c2c1	u	-10%[15.4 µM]	-14	-7%	-13%	1.1%	-3.7
CCOC(=O)c1c(/N=C/C2=C(O)CCCC2=O)sc(C)c1C	-2	-4%[15.4 µM]	-24	-28%	-8%	1.1%	x
CC1CC(C)CN(C(=O)c2cccc(NC(=O)CC3SC(N4CCCCC4)=NC3=O)c2)C1 (stereo not given)	x	11%	2	-1%	x	x	x
O=C1C2C3C=CC(C3)C2C(=O)N1c1cccc2cccnc12 (stereo not given)	-4	-24%	1	12%	13%	-1.2%	0.6
CC(NCC(=O)NCCc1ccc(S(N)(=O)=O)cc1)c1ccc(F)cc1 (stereo not given)	-13	0%[15.4 µM]	-11	8%	12%	-7.1%	x
COc1ccc(/C=N/Nc2nc3ccccc3o2)cc1OC	6	-8%	-4	-1%	9%	0.5%	7.0
COc1ccc(OC)c(N=C(N)N=C(N)N)c1	-18	-62%[inhibitor]	-5	15%	25%	-4.7%	-0.2
CC(C)Cc1ccc(CN2CCCC(NC(=O)CCn3cnnn3)C2)cc1 (stereo not given)	-4	2%[15.4 µM]	-2	-11%	7%	-1.6%	x
NC(=O)[C@@H]1CC2(CC(c3cccc(NC(=O)[C@H]4CCC(=O)N4)c3)=NO2)CN1C(=O)c1ccc(Cl)cc1 (stereo not given in full)	4	9%	-2	8%	7%	-2.4%	5.1
O=C(N1CCOCC1)N1CCN(c2ccc(F)cc2)CC1	-8	-18%	-8	8%	18%	0.4%	-1.6
Cn1nnnc1SCC(=O)N1c2ccccc2Sc2ccc(Cl)cc21	-2	-11%	0	-13%	8%	3.3%	-5.5
CC1CCN(C(=O)CSc2nnc(-c3ccccc3F)o2)CC1	-6	u	-9	-4%	-9%	x	x
C=CCN1c2ccccc2[C@]23C[C@@H](C(=O)OC)N(C(=O)C4CCC4)C2=NC(C(=O)OC)=C(C(=O)OC)[C@H]13	u	x	-7	-6%	-5%&-6%	-0.1%	-2.3[11.7 µM]
COc1cccc(NC(=O)CN2CCc3ccccc3C2)c1	27	14%	-60	2%	5%	-3.1%	2.7
CNS(=O)(=O)c1cccc(C(=O)NCC(c2cccs2)N2CCOCC2)c1 (stereo not given)	10	27%[15.4 µM]	-66	6%	x	x	x
CCC(=O)Nc1cc(C(=O)OCC(=O)c2ccc(Cl)cc2Cl)ccc1C	u	-7%	-6	-5%	5%	1.3%	5.3
COc1ccc(C(=O)Nc2ccc(C)c(S(=O)(=O)N3CCCCCC3)c2)cc1	-1	11%[15.4 µM]	-3	x	7%	x	-0.6
Nc1nc(SCC(=O)NCc2ccccc2)n[nH]1	8	0%	-18	-5%	0%	1.1%	-1.8
CCOC(=O)N1CCN(C2CC(=O)N(c3ccc(C)cc3)C2=O)CC1 (stereo not given)	u	0%	-1	4%	25%	-1.4%	-2.5
COc1ccc(C(=O)n2c(C)c(CCO)c(=O)n2C)cc1	-16	12%	6	-7%	-2%	x	-0.2
CCN(CC(=O)Nc1ccccc1C(F)(F)F)C(=O)CN1C(=O)NC(C)(c2ccccc2)C1=O (stereo not given)	12	26%	-16	-3%	x	-1.1%	x
CCCCCCn1c(=O)c(Cc2ccccc2)c(O)c2ccccc21	-5	u	-5	-23%	21%	x	1.2
C[C@H]1CN([C@@H](C)CO)C(=O)c2cc(NC(=O)C3CCCCC3)ccc2O[C@H]1CN(C)CC1CCCCC1	x	x	-10	5%	x	-5.2%	x
O=C(Cn1nc(-c2ccccc2)ccc1=O)Nc1ccc(NC(=O)c2ccccn2)cc1	2	1%	22	6%	u	3.9%	-3.9
O=S(=O)(NCCN1CCOCC1)c1cccs1	6	-14%	1	-13%	16%	x	-2.8

7 entries out of the list above, ordered by the number in Menin-MLL FL inh, highest first:
SMILES	Menin-MLL FL inh
COc1ccc(/C=N/Nc2nc3ccccc3o2)cc1OC	7.0
CCC(=O)Nc1cc(C(=O)OCC(=O)c2ccc(Cl)cc2Cl)ccc1C	5.3
NC(=O)[C@@H]1CC2(CC(c3cccc(NC(=O)[C@H]4CCC(=O)N4)c3)=NO2)CN1C(=O)c1ccc(Cl)cc1 (stereo not given in full)	5.1
COc1cccc(NC(=O)CN2CCc3ccccc3C2)c1	2.7
COc1ccc(C(=O)n2c(C)c(CCO)c(=O)n2C)cc1	-0.2
COc1ccc(C(=O)Nc2ccc(C)c(S(=O)(=O)N3CCCCCC3)c2)cc1	-0.6
O=C(N1CCOCC1)N1CCN(c2ccc(F)cc2)CC1	-1.6

(listing goes on)
structure	TRPV1 PAM	gsp ag	D2 PAM	gsp antag	Sfp PPTase inh	ClpP mod	Menin-MLL FL inh
COc1ccc(NC(=O)COc2cccc(C(F)(F)F)c2)cn1	-4	5%[15.4 µM]	-16	-15%	x	0.6%	x
COc1cccc(/C=N/NC(=O)CSc2ccccc2C)c1OC	3	-19%	-20	9%	2%	-17%	0.6
CC(C)(C)CC(C)(C)NC(=O)c1ccccc1	-1	11%	-19	3%	5%	-1.1%	-0.3
Cc1ccc(S(=O)(=O)N2CCN(C(=O)c3cccc(F)c3)CC2)cc1	-1	-5%	-8	8%	19%	-4.3%	1.1
Cc1cc(C)cc(NC(=O)c2cccc(NC(=O)c3ccco3)c2)c1	x	-2%	1	-14%	x	-0.6%	x
Cc1cccc(-c2nc3c(c(SCC(=O)N4CCCC4)n2)COC(C)(C)C3)c1	-7	7%	-8	-8%	-8%	0.2%	3.7
O=C1CC(NS(=O)(=O)c2ccc3ccccc3c2)CN1c1ccccc1 (stereo not given)	3	-3%[15.4 µM]	16	-11%	x	x	x
CC(C)[C@H](NC(=O)N1CCn2c1nc1ccccc12)C(=O)NC1CC1	2	-15%	-9	-21%	18%	-1.4%	x
CCN(CC)CCCNC(=O)c1cc(Nc2ccc(OC)cc2OC)nc2ccccc12	14	4%	-7	7%	-6%	2.6%	-1.3
O=C(O)c1cc(NN=C2c3ccccc3-c3ccccc32)ccc1Cl	16	0%[15.4 µM]	-7	-12%	-8%	x	13
COc1ccc(C(C)(C)C)cc1NC(=O)COC(=O)c1ccc([N+](=O)[O-])o1	7	7%	-4	4%	-23%	0.1%	-0.3
Cc1cccc(N2CCN(C(=O)C(Cc3ccccc3)NC(N)=O)CC2)c1C (stereo not given)	0	31%	-4	-4%	8%	-0.1%	-3.6
CC(=O)c1ccc(S(=O)(=O)NCCC(=O)NC(C)c2ccncc2)cc1 (stereo not given)	6	0%	-7	-3%	x	-2.5%	x
Cc1c(C(=O)NC2CCCCC2C)oc2ccccc12 (stereo not given)	0	u	7	7.1µM*	-2%	-0.8%	x
CN(C)/C=N/c1nc2nccc(-c3cccs3)n2n1	-2	6%[15.4 µM]	-1	11%	21%	x	1.5
CCn1c(SCC(=O)Nc2ccc(N(C)C)cc2)nnc1C1CC1	11	-8%[15.4 µM]	0	x	17%	x	6.0
Cc1cc2nc(SCCOC(=O)Nc3ccccc3)nc(C)c2cc1C	12	-2%	7	-15%	2%	-3.3%	12
C[C@@H]1CN([C@@H](C)CO)C(=O)CCCn2nncc2CO[C@@H]1CN(C)C(=O)Nc1ccc(C(C)(C)C)cc1	x	-30%[inhibitor]	4	x	x	1.1%	x
CC1(C(=O)O)CCC(C(=O)Nc2ccccc2)C1(C)C (stereo not given)	2	-5%	22	8%	19%	1.7%	4.8
CC1(C(=O)NC2CCCCCCC2)CC1(Cl)Cl (stereo not given)	-12	5%	-5	-2%	5%	-0.4%	3.4
CCN=C1SC(C(=O)Nc2ccc(OCC)cc2)CC(=O)N1CC (stereo not given)	6	-8%[15.4 µM]	1	14%	21%	x	0.1
CCN(CC)C(=O)c1cc2c(=O)n3ccccc3nc2s1	16	u	-2	18%	0%	4.0%	2.4
CC(C)c1cccc(C(C)C)c1NC(=O)CNCc1ccccc1F	-11	1%	-6	0%	45µM*	1.6%	-1.4

Of the compounds above, 2 have a COOH group.
structure	TRPV1 PAM	gsp ag	D2 PAM	gsp antag	Sfp PPTase inh	ClpP mod	Menin-MLL FL inh
O=C(O)c1cc(NN=C2c3ccccc3-c3ccccc32)ccc1Cl	16	0%[15.4 µM]	-7	-12%	-8%	x	13
CC1(C(=O)O)CCC(C(=O)Nc2ccccc2)C1(C)C (stereo not given)	2	-5%	22	8%	19%	1.7%	4.8

Arranged by number of heavy atoms (low to high): 3 of the compounds above.
structure	TRPV1 PAM	gsp ag	D2 PAM	gsp antag	Sfp PPTase inh	ClpP mod	Menin-MLL FL inh
CN(C)/C=N/c1nc2nccc(-c3cccs3)n2n1	-2	6%[15.4 µM]	-1	11%	21%	x	1.5
COc1ccc(NC(=O)COc2cccc(C(F)(F)F)c2)cn1	-4	5%[15.4 µM]	-16	-15%	x	0.6%	x
O=C1CC(NS(=O)(=O)c2ccc3ccccc3c2)CN1c1ccccc1 (stereo not given)	3	-3%[15.4 µM]	16	-11%	x	x	x
